Screening results as filed in PubChem.
Mtb betalactam = beta-lactam sensitization of Mtb H37Rv; inhibition, % at 25 µM; M. tuberculosis H37Rv growth with meropenem, percent inhibition; hits of this screen are not shown here; actives 0.27% (n = 330,000);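 active means about 74% or more and at least 40 points above the plate without the antibiotic, then above 30% in a dose series; inconclusive means first-round hits that could not be retested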;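 further: growth measured after seven days incubation then overnight dye step; 0% = bacteria only wells and 100% = bacteria with antibiotic; twin plates without the antibiotic show which effects depend on it; some results filed as inactive read as strong as hits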
RecA splice inh = inhibitors of M. tuberculosis RecA intein splicing; actives 0.75% (n = 290,000); AID 2221; cell-free RecA intein splicing, fluorescence; inhibition, %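 (about 9 µM by stock and volumes)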; P9WHJ3; in the data active means inhibition above about 30%; inconclusive means no clear call, values can overlap the other calls;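 further: 0% = vehicle wells and 100% = reference inhibitor control wells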
Target sequence (P9WHJ3 whole entry, looked up, canonical isoform): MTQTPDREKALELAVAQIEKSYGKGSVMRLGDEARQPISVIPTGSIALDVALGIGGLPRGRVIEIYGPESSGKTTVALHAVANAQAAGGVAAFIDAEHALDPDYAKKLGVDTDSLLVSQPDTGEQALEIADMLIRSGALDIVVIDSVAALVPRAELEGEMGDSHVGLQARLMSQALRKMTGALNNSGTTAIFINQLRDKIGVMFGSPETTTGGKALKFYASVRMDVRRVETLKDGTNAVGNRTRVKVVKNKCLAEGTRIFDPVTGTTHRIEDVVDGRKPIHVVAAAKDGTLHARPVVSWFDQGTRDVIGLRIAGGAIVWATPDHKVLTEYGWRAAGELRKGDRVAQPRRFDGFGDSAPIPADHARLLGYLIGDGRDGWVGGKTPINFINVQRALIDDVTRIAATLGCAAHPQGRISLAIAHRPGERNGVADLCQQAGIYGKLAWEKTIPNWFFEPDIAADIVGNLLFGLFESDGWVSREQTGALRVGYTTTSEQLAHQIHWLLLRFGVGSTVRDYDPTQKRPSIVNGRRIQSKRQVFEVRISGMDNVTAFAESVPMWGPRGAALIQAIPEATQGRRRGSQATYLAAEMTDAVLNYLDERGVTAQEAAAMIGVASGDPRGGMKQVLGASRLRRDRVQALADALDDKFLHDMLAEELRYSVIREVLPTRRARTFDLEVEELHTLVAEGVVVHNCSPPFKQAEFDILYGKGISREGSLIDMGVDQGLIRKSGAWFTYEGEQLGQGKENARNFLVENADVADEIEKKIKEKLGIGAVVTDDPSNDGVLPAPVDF
Arbovirus anti = arbovirus infection inhibition. arbovirus infection cell-based antiviral screen. inhibition, % at 10 µM. actives 0.37% (n = 200,000). AID 1251;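 active means inhibition from about 30%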;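 further: bluetongue infection of BSR cells; cell survival read as ATP light after 72 h; 0% = infected wells without compound and 100% = uninfected wells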
Mtb H37Rv = M. tuberculosis H37Rv growth inhibitors, H37Rv strain (AID 1626) | M. tuberculosis H37Rv growth inhibition; higher % means a stronger effect | inhibition, % at 10 µM; hits with a dose series show IC50 in µM | actives 0.95% (n = 220,000);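 active means confirmed in a dose series; inconclusive means inhibition above 80% but not taken into the dose series; inactive means below 80% or under 30% at every dose of the series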;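 further: bacteria incubated seven days before Alamar blue readout; 0% = bacteria only wells and 100% = bacteria with antibiotic wells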
YopH PTP inh = blocks Yersinia enterocolitica YopH tyrosine phosphatase; inhibition, %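 (about 10 µM by stock and volumes)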; actives 0.16% (n = 140,000); fluorescence Ex485/Em525; AID 898;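 active means inhibition of 50% or more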;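 further: controls were vehicle for no effect and minimum signal wells for full effect; inactives centre near -20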
Arbovirus anti repeat = further read-out of Arbovirus anti, marked with its call; inhibition, %; measured here: 10K subset replicate screen; many hits read low in the repeat;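 first of two repeat runs on a subset; 0% = infected and 100% = uninfected wells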
Numbers without * were called inactive; ? = inconclusive; . = no result given. This is a subset; count on the stated rates, not on these rows.

SMILES	Mtb betalactam	RecA splice inh	Arbovirus anti	Mtb H37Rv	YopH PTP inh	others
CN1CCN(c2ncnc3ccc(Br)cc23)CC1	10	0.1	7	-8%	-18	Arbovirus anti repeat=6
COc1ccc(CN2CCNC(=O)C2CC(=O)NC2CCCC2)c(OC)c1 (configuration not stated)	1	-3.0	.	.	.
COc1ccc(OC(=O)c2ccc(Cl)cc2)c(C(C)=O)c1	1	-0.9	0	0%	.
O=C(Nc1ccc(F)cc1)c1ccc(S(=O)(=O)N2CCOCC2)o1	-7	-0.2	.	-14%	.
CCn1c(SCC(=O)NC2CCCC2)nc2c1c(=O)n(C)c(=O)n2C	-4	-4.7	.	.	.
CCCCC(=O)Nc1cccc(C(=O)Nc2ccccc2C(=O)O)c1	-8	-0.3	4	2%	.
O=C(/C=C/c1ccccc1)NNc1ccc(Cl)cc1	99	3.3	-26	?	.
O=C(CSc1nnc(-c2ccccc2Cl)o1)N1CCOCC1	-2	-0.6	.	.	.
CCC1(C)Cc2ccccc2/C(=C/C(=O)N2CCCCC2)N1 (configuration not stated)	6	9.8	5	-1%	-37
O=C(COC(=O)/C=C/c1cccc(Br)c1)NCCc1ccccc1	0	1.4	.	.	.
O=C1c2cccc3cccc(c23)C(=O)N1CCCN1CCN(c2ccc(F)cc2)CC1	74	2.0	13	7%	.
CCCCC(=O)Nc1cccc(-c2nc3ncccc3o2)c1	9	11	-14	0%	-25
COc1ccc(-c2cc(C(=O)N(C)Cc3ccccc3F)c3ccccc3n2)cc1OC	10	8.1	.	.	.
Clc1ccc(Br)cc1-c1nc(-c2ccncc2)no1	5	2.7	-11	-1%	-27
CCC(CNc1cc(OC)cc2cccnc12)NC1CCCCC1 (configuration not stated)	7	67*	.	-11%	.
C/C(=N\Nc1nc(C)cc(-c2ccccc2)n1)c1ccc(C)o1	83	-2.3	1	2%	-28
CC(Oc1ccc(-c2ccccc2)cc1)C(=O)N/N=C/c1cccnc1 (configuration not stated)	-6	4.0	.	.	.
O=C(C1CCCN(c2ncnc3c2nc2n3CCCCC2)C1)N1CCN(c2ccc(F)cc2)CC1 (configuration not stated)	22	9.5	.	.	.
COC(=O)C(C(=O)OC)c1ccccc1[N+](=O)[O-]	32	-1.4	-1	-4%	-22
COc1cccc(C(=O)NC(=S)Nc2ccc(Cl)c(C(=O)O)c2)c1	2	-6.8	8	4%	-23

Of the compounds above, 2 have an aryl thioether with sulfur outside any ring.
SMILES	Mtb betalactam	RecA splice inh	Arbovirus anti	Mtb H37Rv	YopH PTP inh	others
CCn1c(SCC(=O)NC2CCCC2)nc2c1c(=O)n(C)c(=O)n2C	-4	-4.7	.	.	.
O=C(CSc1nnc(-c2ccccc2Cl)o1)N1CCOCC1	-2	-0.6	.	.	.

Additional structures follow:
SMILES	Mtb betalactam	RecA splice inh	Arbovirus anti	Mtb H37Rv	YopH PTP inh	others
CCC(=O)Nc1ccc(-c2cc(-c3ccccc3)nc(-c3ccc(NC(=O)CC)cc3)n2)cc1	29	-7.9	-18	4%	-45
CC1(C)CC(=O)c2cnc(NC(=O)c3ccco3)nc2C1	-2	0.6	8	-2%	-2
Cc1ccc(NC(=O)CN(C)CC(=O)Nc2ccccc2C(=O)Nc2ccccc2)cc1	2	-0.1	7	11%	.
S=c1[nH]ncn1/N=C/c1cccs1	-7	-12	.	0%	.
CCCS(=O)(=O)c1c(S(=O)(=O)CCC)c2c(N)cccn2c1C(=O)c1ccc(OC)cc1	0	-0.5	-17	3%	.
CCOC(=O)CNC(=O)Nc1nnc(-c2ccc(OCC)cc2)o1	-3	0.3	0	-4%	-32
COc1ccccc1-c1nn2c(=O)cc(C)nc2s1	-5	-0.5	0	.	-26
CC(C)CC1(C(=O)NCc2ccccn2)C=CCN1C(=O)c1ccccc1 (configuration not stated)	11	-0.6	0	-7%	-1
CS(=O)(=O)N1CCC(C(=O)NCCN2CCN(Cc3ccccc3)CC2)CC1	-3	-3.4	7	7%	-31
Cc1ccc(S(=O)(=O)N2CCC(C(=O)OCC(=O)N3CCCCC3C)CC2)cc1C (configuration not stated)	2	-1.2	.	.	.
Cc1ccc(Nc2c3c(nc4ncnn24)CC(C)CC3)cc1 (configuration not stated)	-11	.	4	-2%	-27
CCOC(=O)C1CCCN(C(=O)c2cc3c(=O)n4ccccc4nc3s2)C1 (configuration not stated)	-19	-61	.	.	.
O=C(NCCCCNC(=O)c1ccccn1)c1ccccn1	9	-1.3	-1	-3%	.
O=C(CSc1ccsc1[N+](=O)[O-])N1CCCCC1	16	1.8	1	-1%	.
Cc1cc(C)n(-c2nncn2NC(=O)c2ccc(Cl)cc2O)n1	-18	-2.5	8	-10%	-33
Fc1ccc(Oc2ncccn2)c(F)c1	-5	-0.7	4	0%	-7
Cc1c(NS(=O)(=O)c2ccc(Br)cc2)c(=O)n(-c2ccccc2)n1C	-1	0.7	.	.	.
COc1ccccc1Nc1ncccc1C(=O)NCc1ccccc1	3	6.0	10	1%	-10
O=[N+]([O-])c1ccc(S(=O)(=O)NCC(c2cccnc2)N2CCc3ccccc32)cc1 (configuration not stated)	-4	1.4	.	.	.
CCOc1ccc(CN2CCN(CC(O)Cn3c4ccccc4c4ccccc43)CC2)cc1 (configuration not stated)	100	-0.3	-34	4.3µM*	-14
COc1cccc(C2CC(c3cccs3)=NN2C(=O)CSC2=NN3CCCC(=O)N=C3S2)c1OC (configuration not stated)	3	2.1	8	13%	-49
O=C(Nc1ccc(CN2CCCCC2)cc1)c1cccc(F)c1	0	-1.9	-3	-1%	.
Nc1nonc1C(=O)OCC(=O)N1CCCCC1	-6	6.2	0	-1%	0
Oc1c(CN2CCCC(C(F)(F)F)C2)cc(Cl)c2ccccc12 (configuration not stated)	3	5.9	.	.	.
CCCCN1C(N)=NC[C@@H]1c1ccccc1	-9	0.8	.	-13%	.
C=Cc1ccc(Cn2c(=O)n(C)c(=O)c3sccc32)cc1	-15	-0.4	.	.	.
Cc1ccc(C)c(C(=O)COC(=O)c2cc([N+](=O)[O-])ccc2N2CCOCC2)c1	-3	-2.8	.	.	.
COc1ccc(CC(=O)Nc2ccc3c(c2)CCC3)cc1S(=O)(=O)N1CCOCC1	-3	3.6	-5	7%	-21
O=C(OCc1cccc2ccccc12)c1ccc2c(=O)[nH]c(CN3CCOCC3)nc2c1	.	-0.7	-7	0.48µM*	-27
COC(=O)CN1C(=O)[C@H]2[C@@H](c3ccc(C)o3)N3C(=O)CN(Cc4ccccc4)C(=O)[C@@]3(Cc3ccccc3)[C@H]2C1=O	-16	2.1	.	.	.

Compounds from the list above that have an NH in an aromatic ring:
SMILES	Mtb betalactam	RecA splice inh	Arbovirus anti	Mtb H37Rv	YopH PTP inh	others
S=c1[nH]ncn1/N=C/c1cccs1	-7	-12	.	0%	.
O=C(OCc1cccc2ccccc12)c1ccc2c(=O)[nH]c(CN3CCOCC3)nc2c1	.	-0.7	-7	0.48µM*	-27

Back to the main list, starting 3 compounds before the break.
SMILES	Mtb betalactam	RecA splice inh	Arbovirus anti	Mtb H37Rv	YopH PTP inh	others
COc1ccc(CC(=O)Nc2ccc3c(c2)CCC3)cc1S(=O)(=O)N1CCOCC1	-3	3.6	-5	7%	-21
O=C(OCc1cccc2ccccc12)c1ccc2c(=O)[nH]c(CN3CCOCC3)nc2c1	.	-0.7	-7	0.48µM*	-27
COC(=O)CN1C(=O)[C@H]2[C@@H](c3ccc(C)o3)N3C(=O)CN(Cc4ccccc4)C(=O)[C@@]3(Cc3ccccc3)[C@H]2C1=O	-16	2.1	.	.	.
Cc1ccccc1-n1c(C)cc(/C=N/NC(=O)c2ccc(CN3CCOCC3)cc2)c1C	.	-0.7	11	7%	-31
CCOc1ccc(OCc2ccc(C(=O)N3N=C(C(F)F)CC3(O)C(F)F)o2)cc1 (configuration not stated)	-5	1.0	11	8%	5
CCN(CC)CCN(C(=O)c1ccc(S(=O)(=O)N2CCOCC2)cc1)c1nc2cc3c(cc2s1)OCCO3	-6	0.5	.	.	.
COc1ccc(NC(=S)NCCN2CCC(C)CC2)cc1	5	2.5	4	2%	.
CCOC(=O)C1CCCN(C(=S)NC(=O)/C=C/c2ccc(F)cc2)C1 (configuration not stated)	-10	-0.1	.	.	.
CCN1/C(=C/C=C/C=C/C=C/c2sc3ccccc3[n+]2CC)Sc2ccccc21	6	18	.	.	.
Cc1ccc(Oc2nnc(-c3cccs3)c3ccccc23)cc1C	9	0.0	-12	16%	-27
N#Cc1c(N)n(-c2ccccc2)c(=O)c2cc([N+](=O)[O-])ccc12	-9	0.2	1	-8%	.
CC(C)=CCOc1c2occc2cc2ccc(=O)oc12	14	0.2	-10	1%	-12
CCN1CCN(S(=O)(=O)c2ccc(-c3cc(C)no3)s2)CC1	0	2.0	.	.	.
O=C(CCC(=O)OCc1ccc([N+](=O)[O-])cc1Cl)Nc1ccccc1	1	-2.7	.	.	.
CCOc1ccc(N2C(=O)CN=C2Nc2ccccc2F)cc1	-10	-1.7	5	-8%	3
O=C(Nc1cccc(C(F)(F)F)c1)c1cc(Br)cc2c1OCC2	1	.	.	-15%	.
CC(=O)c1ccc(S(=O)(=O)N2CCNCC2)cc1	7	.	.	-8%	.
O=C(CS(=O)(=O)c1ccccc1)Nc1nc2ccccc2s1	-4	-8.7	1	-5%	.
Cc1ccc(C(=O)O/N=C2\CCCc3ccccc32)cc1	2	-0.5	3	3%	-32
NC(=O)[C@@H]1CCNc2c(I)cc([N+](=O)[O-])cc2C(=O)N[C@@H](CCC(=O)O)C(=O)N[C@@H](CO)C(=O)N1	-11	.	7	-2%	4
O=C(NNC(=O)c1sc2cccc(Cl)c2c1Cl)Nc1ccccc1	3	-1.1	-1	1%	-39
Cn1c(=O)[nH]c(=O)c2c1nc(Br)n2CC(O)COc1ccc(Cl)cc1 (configuration not stated)	-1	1.3	-8	2%	.
Cc1cc(NS(=O)(=O)N(C)C)ccc1C(C)C	57	1.5	3	-3%	-2
CCOC(=O)c1nc2ccccc2c(=O)n1-c1ccc(C)cc1C	-2	10	6	-3%	-25
CC(=O)NC(=S)Nc1ccc(S(=O)(=O)Nc2nc(C)cc(C)n2)cc1	2	-0.7	0	8%	.
Cc1ccc(S(=O)(=O)N2CCCCC2)cc1NC(=O)C1CC(=O)N(c2ccc3c(c2)OCCO3)C1 (configuration not stated)	-9	2.2	.	.	.
O=C(NNC1=NS(=O)(=O)c2ccccc21)C1CC(=O)N(c2ccccc2)C1 (configuration not stated)	-9	-0.6	2	-3%	.
CCc1c(C)sc(NC(=S)Nc2cccnc2)c1C(=O)OC	-8	-1.2	11	3%	.
Cn1nnc(C(O)CNCc2cccs2)n1 (configuration not stated)	-2	2.7	2	-2%	-45
Cc1cccc(NC(=O)CNC(=O)c2ccccc2Cl)n1	-10	-1.5	.	.	.
Cc1cc(C)cc(Oc2nc(-c3ccccc3)cc(C)c2S(C)(=O)=O)c1	3	12	-16	11%	5
CN1CCC(=O)N([C@H](CO)c2ccccc2)CC1	0	-0.9	.	.	.
COc1ccc(/C=N/n2cnc3c([nH]c4ccccc43)c2=O)cc1CO	-7	1.5	.	-1%	.
CCOc1cccc2sc(N(CCN(C)C)C(=O)c3ccc4ccccc4c3)nc12	?	17	.	.	.
Oc1ccc(/C=N/N2CCCCC2)cc1O	9	-7.3	.	.	.
Cc1ccc(C(=O)CSc2ccc(-c3ccccc3)nn2)cc1	4	-0.1	0	-7%	0
CCN(CC)C(=O)COc1ccc(-c2nnc(Nc3ccc(OC)c(C(=O)NC)c3)c3ccccc23)cc1	.	10	.	9%	.
COc1ccc(-n2c(=S)[nH]c3sc4c(c3c2=O)CCN(C)C4)cc1	2	-3.3	.	-6%	.
COc1cc2nc(C3CCC3)n(NC(=O)C(OC(C)=O)c3ccccc3)c(=O)c2cc1OC (configuration not stated)	-10	-3.6	8	4%	-60
CC1(C)Cc2c(cnn2-c2cccc(F)c2)C(NC(=O)c2cc[n+]([O-])cc2)C1 (configuration not stated)	-1	0.1	.	.	.
COc1ccc(Cn2c(C(F)(F)F)ccc(C(N)=O)c2=O)cc1	0	-1.3	2	1%	.
CCN(CC)S(=O)(=O)c1ccc2c(c1)oc(=O)n2CC(=O)N(C)C1CCCCC1	-9	-4.5	.	.	.
COCCCNC(=O)c1cc2c(=O)n3cc(C)ccc3nc2nc1NCC1CCCO1 (configuration not stated)	6	-421	2	-16%	-19
Cc1ccc(Sc2cc(C(=O)NCCCN(C)C)c3ccccc3n2)cc1	3	-2.2	.	.	.
COc1ccc(N2C(=O)N3[C@H](c4cccc(C)c4)[C@@H]4C(=O)N(Cc5ccccc5)C(=O)[C@@H]4[C@]3(Cc3ccccc3)C2=O)cc1	-13	4.6	.	.	.
Cc1nnsc1S(=O)c1ccc(F)cc1 (configuration not stated)	-2	1.4	.	.	.
COCCOC(=O)c1c(C)oc2ccc(OCc3ccccc3)cc12	53	10.0	6	1%	-10
